# Ecoli rRNA inh = inhibits bacterial ribosomal RNA function over humanized ribosomes. actives 1.6% (n = 350,000). GFP signal change (wild-type ribosome), % (concentration not given with the values). E. coli WT GFP vs humanized-ribosome RFP mutants, fluorescence, 24 h; stronger effect = lower value; DMSO median 0, no signal -100. AID 720706;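 active = significant combined selectivity score with lowered wild-type GFP, culture density cut under 30%, mutant RFP and density less affected; inactive = any of these conditions unmet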; also: one replicate is shown; some compounds called inactive have numbers as strong as hits
# T cruzi repl = blocks replication of Trypanosoma cruzi; T. cruzi beta-gal in NIH3T3, luminescence, 90 h; inhibition, % (concentration not given with the values); actives 1.4% (n = 300,000);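 active = mean inhibition across valid replicates above about 55%, limit read from the data; inconclusive = mean below that limit but half or more replicates reach it; inactive = mean below it, under half of replicates reach it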;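 also: signal also drops with host cell toxicity which is not excluded here; 0% = plate median of DMSO wells and 100% = zero luminescence signal; higher percent means less beta-gal luminescence so fewer parasites; stock transfer was 50 nL into about 50 µL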
# ALR inh = human ALR oxidase inhibition via reduced H2O2. P55789. purified ALR, DTT oxidation, H2O2 HRP-luminol luminescence. inhibition, % (no concentration beside the values). actives 3.8% (n = 290,000);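 active = mean and each replicate at 75% or more; inconclusive = only one of the two met; inactive = neither met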;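 also: stock transfer was 7.5 nL into about 7.5 µL; 0% = neutral wells and 100% = wells with inactivated enzyme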
# Beta cell apopt = blocks beta cell apoptosis; INS-1E cytokine-induced death, ATP luminescence, 48 h; percent of positive-control rescue, neutral wells zero; protection from apoptosis, % (no concentration beside the values); actives 0.8% (n = 300,000);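 active = all replicates at 75% or more, or half of them and the mean; inconclusive = half reach 75% but not the mean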;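 also: 0% = cytokine-treated negative control wells and 100% = positive control rescue; higher means more ATP so stronger rescue from cytokine killing; wells of about 40 µL received 100 nL stock; the first replicate is given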
# A1 inh = inhibitors of the anti-apoptotic protein A1, read as caspase activation; MEF A1-2A-BIM cells, Caspase-Glo 3/7 luminescence, 3 h; percent of clofoctol response, vehicle zero; caspase activation, % (concentration not given with the values); actives 0.066% (n = 330,000);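 active = over half of replicate activation scores above 10%, or exactly half above 10 with the replicate mean above 10; inconclusive = replicate mean below 10 yet half the replicates above 10; inactive = over half of replicates below 10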;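 also: wells of about 30 µL received 50 nL stock; many hits fall short of the cut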
# Calb FLC = C. albicans growth modulation with fluconazole; C. albicans CaCi-2 (fluconazole-resistant clinical isolate) + fluconazole, Alamar Blue growth, 48 h; growth inhibition, % (concentration not given with the values); actives 0.57% (n = 300,000);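 active = most replicates above 75%; inconclusive = exactly half above 75%; inactive = most below 75%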;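 also: all wells also contain fluconazole at 8 µg/ml as a sub-toxic cotreatment; 0% = median of DMSO wells and 100% = median of geldanamycin control wells; wells of about 8 µL received 7.5 nL stock; the first replicate is given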
# LANA-H2A inh = blocks KSHV LANA binding to histone H2A/H2B. Q9QR71. cell-free LANA-H2A/H2B peptide, fluorescence polarization. inhibition, % (no concentration beside the values). actives 0.6% (n = 320,000); in the data active = inhibition mostly above about 10%, no sharp cut-off; inactive = mostly below about 6.7%;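 also: stock transfer was 7.5 nL into about 10 µL; 0% = median of vehicle wells and 100% = median of positive control wells; one replicate is shown; the record names a cut of 25% in any replicate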
# Target sequence (Q9QR71 whole entry, looked up): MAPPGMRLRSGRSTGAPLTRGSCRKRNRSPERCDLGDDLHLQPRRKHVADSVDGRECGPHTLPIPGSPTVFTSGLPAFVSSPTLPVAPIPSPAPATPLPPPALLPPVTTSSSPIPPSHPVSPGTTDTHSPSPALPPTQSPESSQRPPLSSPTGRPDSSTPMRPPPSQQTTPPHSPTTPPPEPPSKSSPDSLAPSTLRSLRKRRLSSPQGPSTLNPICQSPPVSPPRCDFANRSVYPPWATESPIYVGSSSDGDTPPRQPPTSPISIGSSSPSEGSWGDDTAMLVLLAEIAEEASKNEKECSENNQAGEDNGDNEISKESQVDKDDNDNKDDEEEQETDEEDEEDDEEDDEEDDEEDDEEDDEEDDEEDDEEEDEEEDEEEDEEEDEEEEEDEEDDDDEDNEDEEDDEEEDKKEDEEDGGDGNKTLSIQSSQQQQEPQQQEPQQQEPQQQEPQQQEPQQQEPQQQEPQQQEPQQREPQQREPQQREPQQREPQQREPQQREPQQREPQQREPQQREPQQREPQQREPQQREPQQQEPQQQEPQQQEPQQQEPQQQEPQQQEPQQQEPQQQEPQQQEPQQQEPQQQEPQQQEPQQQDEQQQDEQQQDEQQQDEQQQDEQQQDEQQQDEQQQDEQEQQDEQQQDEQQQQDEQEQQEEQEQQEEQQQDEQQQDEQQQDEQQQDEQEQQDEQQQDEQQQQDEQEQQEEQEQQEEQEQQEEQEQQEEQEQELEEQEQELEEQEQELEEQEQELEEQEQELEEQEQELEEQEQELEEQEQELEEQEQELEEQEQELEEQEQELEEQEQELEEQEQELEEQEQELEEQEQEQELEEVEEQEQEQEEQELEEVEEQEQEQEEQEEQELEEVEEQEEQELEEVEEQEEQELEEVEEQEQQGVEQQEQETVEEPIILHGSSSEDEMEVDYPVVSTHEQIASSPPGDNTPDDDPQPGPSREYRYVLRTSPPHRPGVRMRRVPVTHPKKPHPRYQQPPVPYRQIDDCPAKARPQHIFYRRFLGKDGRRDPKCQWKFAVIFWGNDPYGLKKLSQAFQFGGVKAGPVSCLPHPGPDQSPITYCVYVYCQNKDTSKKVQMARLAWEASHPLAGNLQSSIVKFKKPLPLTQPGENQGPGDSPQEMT
# Beta2AR agonist = activates human beta-2 adrenergic receptor causing internalization; P07550; Am2.2-beta2AR cells, FAP receptor internalization, flow cytometry; reference of the scale not given here; response, % (concentration not given with the values); actives 0.43% (n = 340,000);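 active = response above a set limit, near 3 SD of response in nonfluorescent compounds, cut at about 42% in these data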;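 also: stock transfer was 100 nL into about 11 µL; a reference agonist was the positive control; negative values mostly stem from fluorescent compounds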
# Ecoli rRNA inh OD600 = second read-out of Ecoli rRNA inh, no call of its own (marks repeat the call); OD600 change, %; measured here: OD600 growth;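 optical density of the mix in the first replicate; 0 = DMSO median and -100 = no signal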
# Ecoli rRNA inh RFP = further read-out of Ecoli rRNA inh, marked with its call; RFP signal change, %; measured here: RFP humanized mutant strains;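 first replicate; 0 = DMSO median and -100 = no signal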
# An asterisk follows results filed as active; ? = inconclusive; . = no result given.
1) CCOc1cc(/C=N/N2CCOCC2)ccc1OCc1ccc(C(=O)OC)o1
2) N#C/C(C(=O)Nc1ccc(Cl)cc1)=C(/S)Nc1ccccc1
3) O=C(O)C1CCN(S(=O)(=O)c2ccc(N3CCC(O)CC3)c([N+](=O)[O-])c2)CC1
4) O=C(CCc1ccc(S(=O)(=O)NCc2ccccc2)cc1)NCc1ccc2c(c1)OCO2
5) CCOC(=O)c1sc(=S)n(CC)c1NC(=O)c1ccccc1
6) CC(C)c1ccc(CN2CCC(C(=O)NCc3cccnc3)CC2)cc1
7) Cc1cc(C)n2c(SCC(=O)NC3CCCCC3C)nnc2n1 (centres undefined)
8) Cc1cccc(C)c1NC(=O)CCCSc1nnnn1C

assay / compound	1	2	3	4	5	6	7	8
Ecoli rRNA inh	12.8	-45.0	-1.2	.	-1.5	.	11.9	.
T cruzi repl	-13.1	79.0*	-34.0	5.1	11.8	22.6	-6.3	-3.4
Ecoli rRNA inh RFP	1.1	-2.0	-3.2	.	-2.7	.	1.1	.
Calb FLC	-3.7	23.2	-6.9	-5.7	-15.8	4.0	1.2	-5.1
Beta2AR agonist	9.7	-11.5	1.5	1.4	2.8	-1.6	-4.4	-6.4
Beta cell apopt	-3.3	.	-2.1	-6.6	0.0	0.6	-3.1	.
Ecoli rRNA inh OD600	-2.5	-56.3	3.0	.	1.5	.	10.4	.
LANA-H2A inh	2.6	0.0	-0.6	6.7	2.1	2.0	3.0	-3.5
ALR inh	.	-4.9	-0.7	-10.5	-4.3	.	3.7	-4.2
A1 inh	0.5	-5.1	0.2	-0.7	0.7	-0.4	0.4	-0.2

9) O=Cc1cn(CC(O)Cn2cc(C=O)c3ccccc32)c2ccccc12
10) CC(C)CCNC(=O)C1CCC(=O)N1C(C)C (centres undefined)
11) COc1cc(NC(=O)C2CCN(S(=O)(=O)c3cccc4nonc34)CC2)cc(OC)c1
12) Cc1cc(C(=O)COC(=O)c2ccc(O)cc2)c(C)n1CC(F)(F)F
13) Cc1ccc(NC(=O)CC(=O)Nc2ccc(C)cc2C)c(C)c1
14) COc1ccc(C2(C)NC(=O)N(CC(=O)c3ccc4c(c3)OCO4)C2=O)cc1 (centres undefined)
15) CCNC(=S)Nc1scc(-c2ccccc2)c1C(=O)OCC
16) COc1ccccc1NC(=O)C(CC(C)C)NC(=O)C1CCCCC1 (centres undefined)

assay / compound	9	10	11	12	13	14	15	16
Ecoli rRNA inh	11.3	.	.	-20.4*	2.9	-1.8	.	.
T cruzi repl	-0.4	-4.6	7.9	.	-2.5	-3.8	2.8	11.6
Ecoli rRNA inh RFP	-3.1	.	.	3.0*	0.0	-0.6	.	.
Calb FLC	-3.5	-7.0	0.5	.	-2.9	-0.8	-4.1	-1.2
Beta2AR agonist	4.7	-8.7	1.6	1.9	-2.8	-3.2	-8.4	0.3
Beta cell apopt	-1.1	-1.5	-0.5	-4.4	-2.4	-3.7	1.5	.
Ecoli rRNA inh OD600	6.8	.	.	-10.0*	11.7	3.7	.	.
LANA-H2A inh	2.1	-4.0	5.7	-3.7	-0.8	-3.1	1.1	5.4
ALR inh	13.3	-1.0	.	6.6	0.0	-0.6	3.7	-3.4
A1 inh	-0.1	-0.1	0.1	-4.0	-0.2	-0.3	0.3	-0.2

17) NS(=O)(=O)c1ccc(CNC(=O)c2ccc(Cl)c(S(=O)(=O)NCc3ccccc3)c2)cc1
18) O=c1c2c([N+](=O)[O-])cc([N+](=O)[O-])cc2sn1Cc1ccccc1
19) CC(=O)Nc1ccc(S(=O)(=O)Nc2cc(C)c(-n3nc4ccccc4n3)cc2O)cc1
20) Cc1nnc(SCC(=O)Nc2sccc2C(N)=O)n1Cc1ccccc1
21) O=[N+]([O-])c1cccc(/C=N/N=C\c2ccccc2)c1
22) COc1cc(OC)cc(C(=O)N2CCC(n3c(C)nc4cc(F)ccc43)CC2)c1
23) O=C(NCc1ccccc1Cl)c1ccc(-c2ccccc2)cc1
24) Cc1occc1C(=O)N=Nc1c(O)[nH]c2ccc(Br)cc12

assay / compound	17	18	19	20	21	22	23	24
Ecoli rRNA inh	3.3	-4.7	.	-2.4	-5.3	.	.	.
T cruzi repl	.	57.0*	-3.5	-1.7	-10.5	-6.4	-5.0	9.2
Ecoli rRNA inh RFP	2.0	-2.2	.	-5.0	-5.9	.	.	.
Calb FLC	.	12.2	-5.0	14.9	2.9	15.9	3.4	-11.1
Beta2AR agonist	-10.2	-0.7	9.2	-3.0	-9.0	-109.2	1.6	.
Beta cell apopt	-5.8	20.6	6.4	-0.1	-0.9	3.4	1.9	2.2
Ecoli rRNA inh OD600	-4.9	8.3	.	-5.3	-5.3	.	.	.
LANA-H2A inh	-1.5	0.5	-1.8	10.0	-1.7	-2.7	1.4	-3.8
ALR inh	0.3	12.7	-9.9	25.3	-2.3	-6.7	-17.6	3.2
A1 inh	0.2	0.2	-0.3	-0.8	-1.0	0.1	-1.8	-6.2

25) CCCCCc1nnc(NC(=O)OCCC)s1
26) CCOc1ccc(N(CC(=O)Nc2ccc(C)c(C)c2)S(=O)(=O)c2c(C)noc2C)cc1
27) CCOC(=O)CSc1nc(C(C)C)nc2ccccc12
28) CCC(=NCc1ccco1)c1c(C(F)(F)F)[nH]n(-c2nc3ccccc3s2)c1=O
29) Cc1[nH]c2ccccc2c1Cc1n[nH]c(=S)n1C
30) CCCCCN1CSC(=S)N(Cc2ccccc2)C1
31) COc1ccc(CC(=O)Nc2ccc(S(=O)(=O)N3CCC(C)CC3)cc2)c(OC)c1
32) O=C(CSc1nnnn1C1CCCC1)Nc1cccc(NC(=O)c2ccco2)c1

assay / compound	25	26	27	28	29	30	31	32
Ecoli rRNA inh	.	-8.3	.	.	.	.	-0.4	.
T cruzi repl	-9.3	19.7	-11.1	1.8	-9.8	4.9	.	-10.4
Ecoli rRNA inh RFP	.	-0.5	.	.	.	.	4.2	.
Calb FLC	-1.1	5.2	9.0	12.4	15.7	1.1	.	25.5
Beta2AR agonist	0.0	6.7	-0.4	24.3	1.0	-7.2	-8.9	-15.4
Beta cell apopt	-0.1	.	-7.9	.	-2.7	.	-5.1	-6.9
Ecoli rRNA inh OD600	.	-6.7	.	.	.	.	-0.4	.
LANA-H2A inh	0.9	-1.5	2.2	0.7	-0.1	0.5	-67.4	-4.0
ALR inh	-4.4	18.9	-3.6	86.0*	47.9	23.7	-5.5	-4.5
A1 inh	1.4	1.5	0.9	-8.2	-0.8	-0.5	0.1	-2.9

33) Cc1cc(C(=O)COc2ccccc2[N+](=O)[O-])c(C)n1-c1cccc(S(=O)(=O)N2CCOCC2)c1
34) CC(CC(=O)NCc1ccc(F)cc1)c1ccccc1 (centres undefined)
35) Cc1nn(CC(=O)N2N=C(C(F)F)CC2(O)C(F)F)c(C)c1[N+](=O)[O-] (centres undefined)
36) NC(=O)c1cnn2c(-c3cccc(C(F)(F)F)c3)ccnc12
37) O=C(CCCOc1ccc(Br)cc1)NNC(=O)c1ccncc1
38) Nc1nnc(Cc2ccccc2)s1
39) CCCCNc1c(N2CCN(C(=O)OCC)CC2)c(=O)c1=O
40) O=C(Nc1ccccc1)c1ccc(S(=O)(=O)N(CCO)CCO)cc1

assay / compound	33	34	35	36	37	38	39	40
Ecoli rRNA inh	.	5.8	8.7	4.6	4.9	.	1.3	.
T cruzi repl	-14.0	-8.5	-6.9	-5.9	-12.7	-5.4	-11.5	-18.6
Ecoli rRNA inh RFP	.	-0.4	6.3	-1.0	-0.2	.	-1.9	.
Calb FLC	-9.1	1.3	?	1.9	-2.1	-8.1	5.5	-37.0
Beta2AR agonist	4.5	-0.8	-1.3	7.0	0.2	0.3	-3.2	16.7
Beta cell apopt	6.4	-4.6	-1.8	-1.0	4.0	-3.0	2.2	3.8
Ecoli rRNA inh OD600	.	8.7	9.4	7.3	6.3	.	10.5	.
LANA-H2A inh	-5.0	0.3	0.5	1.1	3.6	1.1	-4.5	-4.5
ALR inh	-11.2	7.1	.	22.1	-13.6	.	-3.0	.
A1 inh	0.0	-1.0	0.6	0.9	-0.7	0.1	-0.4	-0.2

41) O=C(NC1CCN(S(=O)(=O)c2ccc(F)cc2)CC1)C1CCCCC1
42) CCOC(=O)c1c(C)n(C)c2cc(Br)c(OC)cc12
43) NC(=O)CN1CCN(S(=O)(=O)c2ccc(Cl)cc2)CC1
44) CCN1C(=O)/C(=C2\SC(=S)N(NC(=O)c3cccnc3)C2=O)c2ccccc21
45) COc1ccc(C(=O)N[C@H](C(=O)NCc2ccc(C)cc2)C(C)C)cc1
46) Cc1ccccc1NCC(=O)N/N=C/c1c[nH]c2ccccc12
47) C(=N\Nc1nc2ccccc2[nH]1)/c1ccncc1
48) CC(=O)N[C@@H](Cc1c[nH]c2ccccc12)C(=O)NCCc1ccc(S(N)(=O)=O)cc1
49) CCOc1cc(/C=C(/C#N)C(=O)Nc2ccc(O)cc2)cc(Br)c1O
50) COc1cccc(NC(=O)CN(C)C(=O)c2cc(-c3ccco3)nc3ccccc23)c1
51) O=C1CN(C(=S)Nc2ccc(OC(F)F)cc2)CCN1

assay / compound	41	42	43	44	45	46	47	48	49	50	51
Ecoli rRNA inh	8.4	8.4	14.6	-10.3	8.3	-3.8	7.9	12.9	.	6.4	15.5
T cruzi repl	-10.0	27.5	-0.5	4.0	2.6	-6.4	-15.2	-15.5	2.3	-7.4	-15.2
Ecoli rRNA inh RFP	3.6	-0.5	2.4	5.8	-0.6	-0.4	2.5	-0.3	.	1.6	-4.9
Calb FLC	-6.1	1.7	-6.5	-1.2	-10.7	?	-2.1	.	4.8	-4.0	-3.0
Beta2AR agonist	0.7	8.8	-5.7	3.1	8.0	5.4	-14.4	-5.5	52.3*	5.7	-0.3
Beta cell apopt	-7.0	-7.7	-2.8	-1.5	-3.3	-7.4	.	-5.2	26.6	2.5	0.0
Ecoli rRNA inh OD600	14.0	9.0	9.7	-0.3	18.9	-1.1	19.2	15.7	.	1.8	17.4
LANA-H2A inh	-0.3	-3.5	-2.0	0.3	2.1	-3.6	-4.0	4.8	-8.8	.	5.2
ALR inh	1.7	-4.3	-16.0	1.1	0.6	.	98.1*	9.4	98.7*	.	-2.3
A1 inh	-1.2	-0.3	-0.1	0.1	0.1	0.3	-0.7	-0.5	2.2	-0.1	-0.4

# Screening results (PubChem)

# Only part of the results is shown. The share of hits here may be higher or lower than overall.
